# D2 PAM: human D2 receptor positive allosteric modulation; DiscoveRx D2 beta-arrestin cells, luminescence, 90 min; 100% = 57 uM dopamine signal; potentiation, % (no concentration beside the values); actives 0.23% (n = 360,000); AID 624464; active = potentiation of 50% or more; inconclusive = 30% to 50%; inactive = 30% or less;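 also: compound concentration not given in the record; tested on top of an EC20 dose of dopamine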
#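 PathHunter beta-arrestin assay in DiscoveRx D2 cells. Compounds were added with an EC20 of dopamine (50 nM final) for 90 min at 37 deg C. Luminescence was read 1 h after detection reagent, with 57 uM dopamine as the EC100 control.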
# TRPML1 blocker: inhibitors of human TRPML1 channel | actives 0.02% (n = 390,000) | activity change, negative = inhibition, % (test concentration not listed) | TRPML1-inducible cells, Ca2+ dye fluorescence, FDSS; hits give low values; inhibition of EC80 agonist-evoked calcium signal; in the data active means activity change below about -50%; inconclusive means about -30% to -50%; inactive means above about -30%;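 also: stimulus is agonist 54-4 at its EC80 concentration; % is scaled to controls: 0 for no effect and ±100 for the full control effect; compound concentration not given in the record; the text of the record puts the active cut at -80%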
#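 Calcium fluorescence in TRPML1-DL cells induced overnight with Tet: a 110 s read after compound pin addition, then a 110 s antagonist read after challenge with 54-4 at 4 uM final (EC80).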
# Six1-Eya2 inh: inhibitors of human Six1/Eya2 interaction | AlphaScreen GST-Six1/His-Eya2 binding, biochemical; hits give low values; control for the full effect not named in the record | actives 0.56% (n = 360,000) | activity change, % (no concentration beside the values) | Q15475+O00167 | AID 651725; in the data active = activity change below about -65%; inconclusive = about -30% to -65%; inactive = above about -30%; also: % is scaled to controls: 0 for no effect and ±100 for the full control effect; compound concentration not given in the record
#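 AlphaScreen luminescence read after one hour at 37 °C in darkness. Pin-transferred compounds met GST-Six1 and His-Eya2 protein (5X stock 250 nM/500 nM) plus glutathione donor and Ni-chelate acceptor beads (5X, 50 ug/mL).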
# TRPML1 ag: human mucolipin-1 channel agonism; Q9GZU1; TRPML1-expressing cells, Ca2+ dye fluorescence, FDSS; host cell line not named in the record; reference of the full effect not given here; activation, % (no concentration beside the values); actives 0.12% (n = 410,000); AID 624414; in the data active = activation above about 50%; inconclusive = about 30% to 50%; inactive = below about 30%; also: 0% is about no effect; the text of the record puts the active cut at 80%
#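 Tetracycline-induced TRPML1-DL cells are seeded and incubated overnight before loading with a no-wash Ca2+ dye and quencher. Agonist activity is taken from the 110 s fluorescence read following compound pin-transfer on an FDSS, before EC80 54-4 challenge.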
# CtBP-E1A inh: inhibitors of CtBP/E1A interaction. AlphaScreen GST-E1A/His-CtBP binding, 1536-well; hits give low values; control for the full effect not named in the record. activity change, % (test concentration not listed). actives 0.49% (n = 340,000); in the data active means activity change below about -65%; inconclusive means about -30% to -65%; inactive means above about -30%; also: % is scaled to controls: 0 for no effect and ±100 for the full control effect; compound concentration not given in the record
#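 Protein mix (5X: 125 nM each GST-E1A, His-CtBP) was incubated with pinned compound 2 h at 37 deg C in dark, in 50 mM Tris pH 8.0 buffer with 300 mM NaCl. Glutathione donor and nickel acceptor beads followed; AlphaScreen signal read after 1 h.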
# TRPV1 potentiator: enhances activation of the human vanilloid receptor TRPV1. TRPV1-expressing cells, Fluo-8 calcium influx, capsaicin EC20 potentiation; host cell line not named in the record; control for the full effect not named in the record. potentiation, % at 8.33 µM. Q8NER1. actives 0.02% (n = 320,000); active means potentiation above 80%; inconclusive means 30% to 80%; inactive means below 30%; also: 0% is about no effect
# Target sequence (Q8NER1 whole entry, looked up): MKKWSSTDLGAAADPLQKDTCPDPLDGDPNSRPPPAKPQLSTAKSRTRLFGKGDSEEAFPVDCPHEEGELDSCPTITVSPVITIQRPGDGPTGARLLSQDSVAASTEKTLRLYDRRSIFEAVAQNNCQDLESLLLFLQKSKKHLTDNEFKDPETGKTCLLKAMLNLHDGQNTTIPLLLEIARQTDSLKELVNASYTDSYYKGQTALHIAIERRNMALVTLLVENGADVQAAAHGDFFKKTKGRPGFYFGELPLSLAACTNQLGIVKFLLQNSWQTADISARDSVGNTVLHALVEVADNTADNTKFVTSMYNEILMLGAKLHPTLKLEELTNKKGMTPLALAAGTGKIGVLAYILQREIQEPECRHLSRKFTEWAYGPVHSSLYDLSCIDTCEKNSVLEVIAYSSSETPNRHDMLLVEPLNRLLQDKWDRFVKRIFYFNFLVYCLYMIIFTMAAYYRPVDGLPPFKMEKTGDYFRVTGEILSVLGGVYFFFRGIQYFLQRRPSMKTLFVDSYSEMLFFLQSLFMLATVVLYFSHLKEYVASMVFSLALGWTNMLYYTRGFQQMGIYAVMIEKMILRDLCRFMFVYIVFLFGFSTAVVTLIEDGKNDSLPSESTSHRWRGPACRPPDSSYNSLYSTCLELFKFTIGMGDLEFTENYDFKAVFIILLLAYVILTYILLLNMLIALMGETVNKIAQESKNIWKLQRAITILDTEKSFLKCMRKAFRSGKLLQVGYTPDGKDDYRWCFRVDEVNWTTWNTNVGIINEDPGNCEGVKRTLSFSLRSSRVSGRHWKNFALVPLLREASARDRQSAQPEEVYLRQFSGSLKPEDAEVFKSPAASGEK
#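 Fluo-8 calcium influx in TRPV1-expressing cells, kinetic read (ex 480/em 520 nm). Compound added and read 3 min for agonist activity, followed by capsaicin at EC20 final and 2 min further read for enhancement.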
# * hit, by the source's call; ? = inconclusive; / = not tested or not shown; & = joins results of further samples.
SMILES,D2 PAM,TRPML1 blocker,Six1-Eya2 inh,TRPML1 ag,CtBP-E1A inh,TRPV1 potentiator
CCCCCN(C(=O)CCC(=O)OCC(=O)N1CCCC(C)C1)c1c(N)n(CCCC)c(=O)[nH]c1=O (centres undefined),-10,4,0,-0.2,0,4
CC1(C)NC(=O)N(CC(O)CN2C(=O)CCC2=O)C1=O (centres undefined),-7,8,-1,-0.5,9,3
O=c1[nH]c(Cc2ccc(F)cc2)nc2scc(-c3ccc(F)cc3)c12,-5,0,-5,4.3,-6,-2
CCCn1c(N)c(N2CCCCC2)c(=O)n(CC(=O)Nc2ccc(OC(F)(F)F)cc2)c1=O,4,22,0,-0.5,3,16
Nc1cc(N)nc(SCCOc2ccccc2F)n1,9,5,0,-0.3,0,12
S=C1NC2=C(CCCC2=C2SCCCS2)C(c2ccccc2)N1 (centres undefined),-4,-1,-3,14,/,9
COc1ccc(N(C)C(=O)c2cc3c(s2)-c2ccc(Cl)cc2S(=O)(=O)C3)c(OC)c1,-6,14,1,-1.6,-6,1
CS(=O)(=O)c1ccc(Cl)c(NC(=O)CN2CCN(C(=O)c3cccs3)CC2)c1,-2,4,-4,-0.4,-3,/
COc1cccc(NS(=O)(=O)c2c(C)n(C)c(=O)n(C)c2=O)c1,-6,-7,5,0.1,-4,-19
O=C(c1cc(COc2ccc(F)cc2Cl)on1)N1CCCCCC1,-12,7,9,0.0,/,-13
CC1CCC/C=C/C(=O)c2c(O)cc(O)cc2CC(=O)O1 (centres undefined),-87,/,1,/,-23,8
CCc1c(O)nc(SCC(=O)Nc2ccccc2OC)n(-c2ccccc2C)c1=O,2,5,-2,-1.0,3,7
O=C(NCc1ccc(Cl)cc1)NCC(F)(F)F,-16,-11,1,0.2,1,-9
CN(C)c1ncc(S(=O)(=O)c2ccc(Cl)cc2)c(-c2ccccc2)n1,-20,28,2,-0.1,6,1
CC1=CC2C(C3C=CC2(C)C(=O)C3(C)O)C(C)(O)C1=O (centres undefined),-1,5,1,-0.5,5,/
O=C1C[C@H]2CCCCC(=O)N3CC[C@@H](C1)[C@@H]23,/,3,9,0.1,4,/
O=C1NC(Cc2c[nH]c3ccccc23)C(=O)N1CCOc1ccccc1 (centres undefined),-14,-10,-2,-0.5,3,7
CCc1ccc(-n2c(=S)sc3c(=O)n(-c4ccccc4OC)c(=S)[nH]c32)cc1,-6,-15,4,0.5,2,-7
COc1ccc(Cc2nc3ccc(C(=O)NCC4CCOCC4)cc3o2)cc1OC,5,3,2,0.4,-1,6
COc1ccccc1C(=O)C1CCCN(C(=O)C2=CC(=O)CC(C)(C)O2)C1 (centres undefined),-3,19,7,2.2,2,-13

# Exported with two lines to a compound: part of the list above
# Sequence of screens: D2 PAM | TRPML1 blocker | Six1-Eya2 inh | TRPML1 ag | CtBP-E1A inh | TRPV1 potentiator
- COc1ccc(N(C)C(=O)c2cc3c(s2)-c2ccc(Cl)cc2S(=O)(=O)C3)c(OC)c1
  -6 | 14 | 1 | -1.6 | -6 | 1
- O=c1[nH]c(Cc2ccc(F)cc2)nc2scc(-c3ccc(F)cc3)c12
  -5 | 0 | -5 | 4.3 | -6 | -2
- CN(C)c1ncc(S(=O)(=O)c2ccc(Cl)cc2)c(-c2ccccc2)n1
  -20 | 28 | 2 | -0.1 | 6 | 1

# By substructure, the compounds so far with fluorine.
SMILES,D2 PAM,TRPML1 blocker,Six1-Eya2 inh,TRPML1 ag,CtBP-E1A inh,TRPV1 potentiator
O=c1[nH]c(Cc2ccc(F)cc2)nc2scc(-c3ccc(F)cc3)c12,-5,0,-5,4.3,-6,-2
CCCn1c(N)c(N2CCCCC2)c(=O)n(CC(=O)Nc2ccc(OC(F)(F)F)cc2)c1=O,4,22,0,-0.5,3,16
Nc1cc(N)nc(SCCOc2ccccc2F)n1,9,5,0,-0.3,0,12
O=C(c1cc(COc2ccc(F)cc2Cl)on1)N1CCCCCC1,-12,7,9,0.0,/,-13
O=C(NCc1ccc(Cl)cc1)NCC(F)(F)F,-16,-11,1,0.2,1,-9

# Remaining list, next part:
SMILES,D2 PAM,TRPML1 blocker,Six1-Eya2 inh,TRPML1 ag,CtBP-E1A inh,TRPV1 potentiator
O=C(Nc1ccccc1)c1cc2ccccc2o1,-23,-7,7,-0.2,5,-8
Cc1cccc(NC(=O)CSc2n[nH]c(-c3ccncc3)n2)c1C,7,12,-1,-0.7,3,2
O=C(NCc1ccco1)C(=O)NCC1OCCCN1S(=O)(=O)c1ccc(F)cc1 (centres undefined),-5,9,0,2.5,3,-2
CC(=O)NC(c1ccc(F)c(F)c1)c1nc(-c2cccc(C(=O)O)c2)cs1 (centres undefined),0,/,-11,-0.8,-13,/
CC1CN(C(C)C)C(C)CC1OC(=O)c1ccccc1 (centres undefined),-9,/,7,/,/,12
Nc1nc(SCC(=O)NCC2CCCO2)[nH]c(=O)c1NC(=O)c1ccco1 (centres undefined),-5,7,9,0.1,5,10
CC(NC(=O)NC12CC3CC(CC(C3)C1)C2)C1CCCO1 (centres undefined),0,-24,2,0.2,0,4
CCCCC(=O)N/N=C(\C)CC(=O)Nc1cc(Cl)ccc1OC,-12,-4,-3,-0.7,-2,13
CCOC(=O)c1cccc(N2C(=O)C3C(C(=O)NC4CC4)C4(C)C=CC3(O4)C2C(=O)NC(C)(C)C)c1 (centres undefined),-10,-5,-6,0.1,4,25
O=S(=O)(NCCc1ccncc1)c1ccccc1,-4,1,40,-0.8,-3,6
COc1cc(NC(=O)c2cccc(C)c2)c(Cl)cc1[N+](=O)[O-],-17,5,3,1.1,9,3
CC1CCCCC1NC(=O)c1ccc(S(=O)(=O)NNC(=O)c2ccncc2)cc1 (centres undefined),2,17,-2,0.1,-1,24
Cc1ccc(S(=O)(=O)N2CCOC2CNC(=O)C(=O)NCCCc2ccccc2)cc1 (centres undefined),-9,-4,2,3.0,-11,2
Cc1ccc(C(=O)NNC(=S)Nc2cccc(Cl)c2Cl)cc1[N+](=O)[O-],-8,-4,-2,0.5,2,0
CCCCn1c(N)c(N(Cc2ccccc2OC)C(=O)C2=COCCO2)c(=O)[nH]c1=O,-10,-9,2,1.2,-11,1
Cc1ccccc1C(=O)Nc1ccc(C(=O)NNC(=O)CCCOc2ccc(Cl)cc2Cl)cc1,-8,-12,-15,4.1,-2,-7
CCC(=O)c1ccc(OCC(O)Cn2nc(C)c(Br)c2C)cc1 (centres undefined),2,-8,5,0.7,2,0
CCCc1cc(=O)[nH]c(SCc2csc(-c3ccccc3)n2)n1,-1,27,0,0.7,7,?
O=C(Cn1c(=O)oc2cc(S(=O)(=O)N3CCCCCC3)ccc21)NC1CCCCCCC1,9,10,8,-0.1,7,-12
CC1(C)C(=O)Nc2ccccc2N1C(=O)COC(=O)c1cccc(O)c1,-1,-16,-2,0.0,0,/

# 5 compounds from above, sorted by the number in CtBP-E1A inh, highest first:
Structure	D2 PAM	TRPML1 blocker	Six1-Eya2 inh	CtBP-E1A inh
COc1cc(NC(=O)c2cccc(C)c2)c(Cl)cc1[N+](=O)[O-]	-17	5	3	9
CCOC(=O)c1cccc(N2C(=O)C3C(C(=O)NC4CC4)C4(C)C=CC3(O4)C2C(=O)NC(C)(C)C)c1 (centres undefined)	-10	-5	-6	4
CC(NC(=O)NC12CC3CC(CC(C3)C1)C2)C1CCCO1 (centres undefined)	0	-24	2	0
CCCCC(=O)N/N=C(\C)CC(=O)Nc1cc(Cl)ccc1OC	-12	-4	-3	-2
O=S(=O)(NCCc1ccncc1)c1ccccc1	-4	1	40	-3

# (more compounds)
SMILES,D2 PAM,TRPML1 blocker,Six1-Eya2 inh,TRPML1 ag,CtBP-E1A inh,TRPV1 potentiator
COCc1cc(C)nc(SCC[N+](C)(C)CC(=O)c2ccc(Br)cc2)c1C#N,-8,6,-2,-0.7,-6,-23
COc1ccc(C(=O)NCCc2c[nH]c3ccccc23)cc1OC,-3,27,-1,-0.1,-7,3
COc1ccc(N2CCN(S(=O)(=O)c3cc(-c4cc(C)no4)ccc3C(C)C)CC2)cc1,4,13,3,3.0,/,2
O=C(NNC(=O)c1ccccc1F)c1ccc(-n2cncn2)c([N+](=O)[O-])c1,-22,-4,10,0.0,6,3
COc1ccc(-n2nnnc2SCC(=O)Nc2c(C)n[nH]c2C)cc1,-19,13,-13,0.6,1,/
COCCNC(=O)C1(C)CCCN(C(=O)c2cnc3ccccc3n2)C1 (centres undefined),-5,/,-2,-0.7,0,/
CC(=O)NCCCCCCNC(C)=O,-6,11,0,-0.5,-1,-6&3
COc1ccccc1-n1c(=S)[nH]c2c(sc(=S)n2-c2ccccc2)c1=O,-1,?,-19,0.5,-27,-4
CC(=O)NC(=S)Nc1ccc(-c2nc3ccc(C)cc3s2)cc1,-2,-2,0,0.4,3,7
COc1ccccc1CN1CCNC(=O)C1CC(=O)N(C)CC1CCOCC1 (centres undefined),-12,-9,3,0.1,1,9
CC1CCC(C(C)C)C(OCC(O)CNC(C)(C)C)C1 (centres undefined),-3,27,-3,1.8,/,13
COc1ccc(OC)c(Nc2nc3ccc(C)cc3n3cnnc23)c1,12,-11,6,1.2,29,0
NC(=O)CC(NC(=O)c1ccccc1)c1ccc(N2CCC(Cc3ccccc3)CC2)c([N+](=O)[O-])c1 (centres undefined),-7,-4,-18,-0.3,-9,-13
COc1cc(-c2noc(CCC(=O)NC3CCCC3)n2)cc(OC)c1OC,0,19,-3,0.0,-20,8
COc1ccc([C@H]2CC(=O)C=C(c3ccc(OC)cc3OC)C2)cc1,5,-16,-7,-0.1,-3,-8
Cc1ccc(NC(=O)CSc2nnc(-c3ccc(S(=O)(=O)N4CCOCC4)cc3)n2C)cc1,9&5,-26&11,6&0,1.6&-0.7,-1&1,?
Cc1cccc2cc(C#N)c(NCCNC(=O)c3ccccc3)nc12,-6,10,8,2.1,3,/
CC1CCCN(c2nc3nonc3nc2Nc2ccccc2F)C1 (centres undefined),-6,-1,-9,-0.1,-3,4
CC1(C)CC(NC(=O)c2ccccn2)CC(C)(C)N1O,-6,-7,3,0.3,/,-1
COCc1c(C(=O)Nc2nnc(C3CC3)s2)oc2ccccc12,-5,10,10,0.2,2,/

# Quoted from the listing:
# Entry for COc1ccc([C@H]2CC(=O)C=C(c3ccc(OC)cc3OC)C2)cc1 under TRPV1 potentiator: -8
# Entry for COc1cc(-c2noc(CCC(=O)NC3CCCC3)n2)cc(OC)c1OC under D2 PAM: 0

# Continued.
SMILES,D2 PAM,TRPML1 blocker,Six1-Eya2 inh,TRPML1 ag,CtBP-E1A inh,TRPV1 potentiator
Cc1cccc(C)c1NC(=O)CNC(=O)c1ccc2ccccc2n1,0,1,26,0.6,0,7
CC(C)c1onc(C(=O)N(C)C2CCCCC2)c1[N+](=O)[O-],-2,5,7,-0.2,4,-11
Cc1cccnc1C(NC(=O)C1CCN(Cc2ccccc2)CC1)c1ccc(F)cc1 (centres undefined),-11,/,3,0.0,3,/
COC(=O)c1cccc(CC2(C)C(=O)Nc3cc(-c4ccccc4Cl)ccc32)c1 (centres undefined),-2,/,0,-0.3,-13,/
Cc1cc(S(=O)(=O)N2CCOCC2)ccc1OCC(=O)Nc1ccc(F)cc1F,-22,-11,-4,-1.8,-2,-5

# Random draw from the library, and some 0.95% of all compounds hit somewhere here.
